HTT prom inh: inhibits huntingtin promoter activity; actives 0.93% (n = 48,000); HEK293 HTT promoter firefly luciferase reporter (activity 0% = vehicle and -100% = no light), 24 h; Potency, µM (highest dose often 57.5 µM), for inactives: top-dose activity change, negative = inhibition, most hits filed as inhibitors; AID 1508623; active means well fitted inhibition curve with a large enough effect; inconclusive means small, poorly fitted or top-dose-only effect; inactive means no such curve, though single readings can be large or run the other way; further: nearly all actives have a fitted effect of over 50% in size
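Luminescence was read after Dual-Glo reagent and a 10 min room-temperature incubation. Values were normalized to vehicle (0% activity) and zero RLU (-100% activity). Reporter HEK293 cells had been exposed to compounds (up to 57.5 uM final) for 24 h.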
PMP22 txn: modulates PMP22 transcription in S16 Schwann cells; AID 1508649; actives 2% (n = 43,000); Potency, µM (highest dose often 57.5 µM), for the others: at the highest dose activity change, negative = inhibition, most hits filed as inhibitors; S16 Pmp22-F2sN Schwann cells (luciferase reporters placed in the Pmp22 gene), FLuc/NLuc coincidence luminescence, 24 h; active = clear falling dose curves in both reporters; inconclusive = both reporters move, but less clearly or upward; inactive = either reporter flat; the % is the NLuc reporter signal; further: on the % scale 0 is the no-effect control and ±100 the full control effect; some results filed as inactive show a strong effect at the top dose
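Transcriptional readout in edited S16(c9) cells: two luciferases reported from the Pmp22 locus, measured in turn after 24 h compound incubation.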
An asterisk follows results filed as active; u = inconclusive; x = no result given; [ ] = dose if it differs, or a comment. Potency means the concentration at half of the fitted maximal effect.

The line under a structure holds: PMP22 txn, HTT prom inh
> CCCCN(CC)c1nc(-c2ccccc2F)nc2ccccc12
    2%, -9%
> CC(C)CN(C[C@@H](O)[C@H](Cc1ccccc1)NC(=O)O[C@H]1CO[C@H]2OCC[C@H]21)S(=O)(=O)c1ccc(N)cc1
    x, u
> CCOC(=O)C1=C(CS(=O)(=O)c2ccc(C)c(C)c2)NC(=O)NC1c1ccccc1OCC (centres undefined)
    -9%, -12%
> CC(NC(=O)CCSCc1ccccc1F)c1ccccc1 (centres undefined)
    3%, 31%[activator]
> CC(=O)N1CCN(c2nc3c(F)cc(F)cc3s2)CC1
    -1%, 43%[activator]
> CC(=O)Nc1ccc(NC(=O)CCc2c(C)nc3c(c(C)nn3-c3ccccc3)c2C)cc1
    -7%, 8%
> CN(C)c1ccc(Nc2nc3ccccc3n3nnnc23)cc1
    14µM*, -20%
> COc1ccc(NC(=O)c2ccc(-c3nc(CSc4ccccc4)c(C)o3)cc2)cc1OC
    -6%, u
> COCCCNC(=O)c1cnc2c(-c3ccc(F)cc3)c(C)nn2c1C
    -16%, -11%
> O=C(CCSCc1ccc(Cl)cc1)N1CCN(c2ccccc2F)CC1
    -26%, -21%
> COc1ccccc1-c1ccnc2c(-c3ccc(Br)cc3)c(C)nn12
    0%, -7%
> CCOc1ccc(C(=O)Nc2c(C(=O)c3ccccc3)oc3ccccc23)cc1
    -1%, 12%
> O=C(CCc1nc(CN2CCN(S(=O)(=O)c3ccc(F)cc3)CC2)no1)N1CCCCC1
    -13%, -7%
> O=C(C1CCCCC1)N(Cc1cccnc1)c1nc2c(F)cccc2s1
    -4%, -28%
> CCOC(=O)CNC(=O)N1[C@H](c2cccs2)[C@@H](C)C(=O)[C@@H](C)[C@@H]1c1cccs1
    -22%, -12%

Structural class: the compounds so far containing a carbonyl joined to an NH by a bond outside any ring
The line under a structure holds: PMP22 txn, HTT prom inh
> CC(C)CN(C[C@@H](O)[C@H](Cc1ccccc1)NC(=O)O[C@H]1CO[C@H]2OCC[C@H]21)S(=O)(=O)c1ccc(N)cc1
    x, u
> CC(NC(=O)CCSCc1ccccc1F)c1ccccc1 (centres undefined)
    3%, 31%[activator]
> CC(=O)Nc1ccc(NC(=O)CCc2c(C)nc3c(c(C)nn3-c3ccccc3)c2C)cc1
    -7%, 8%
> COc1ccc(NC(=O)c2ccc(-c3nc(CSc4ccccc4)c(C)o3)cc2)cc1OC
    -6%, u
> COCCCNC(=O)c1cnc2c(-c3ccc(F)cc3)c(C)nn2c1C
    -16%, -11%
> CCOc1ccc(C(=O)Nc2c(C(=O)c3ccccc3)oc3ccccc23)cc1
    -1%, 12%
> CCOC(=O)CNC(=O)N1[C@H](c2cccs2)[C@@H](C)C(=O)[C@@H](C)[C@@H]1c1cccs1
    -22%, -12%

Reformatted bar-delimited: two of the compounds above.
structure | PMP22 txn | HTT prom inh
COCCCNC(=O)c1cnc2c(-c3ccc(F)cc3)c(C)nn2c1C | -16% | -11%
CC(=O)N1CCN(c2nc3c(F)cc(F)cc3s2)CC1 | -1% | 43%[activator]

New compounds follow:
The line under a structure holds: PMP22 txn, HTT prom inh
> CCOC(=O)c1ccccc1NC(=O)c1c(-c2ccccc2)noc1C
    3%, u
> COc1ccc(-c2cn3nc(SCC(=O)Nc4cccc(C)c4C)ccc3n2)cc1
    u, -20%
> CCCN1CCN(c2cc3c(cc2F)c(=O)c(S(=O)(=O)c2ccc(CC)cc2)cn3CC)CC1
    u, 4%
> CCc1ccc(NC(=O)C(NS(=O)(=O)c2cccs2)C(C)C)cc1 (centres undefined)
    -6%, -26%
> CC(CCc1ccccc1)NC(=O)Cn1c(=O)nc(-c2ccccc2F)c2cc(Cl)ccc21 (centres undefined)
    u, -22%
> Cc1ccc(C(=O)/C=C/c2cn(CC(O)CN3CCc4ccccc43)c3ccccc23)cc1 (centres undefined)
    u, -31%
> Cc1c(-c2nnc(SCC(=O)Nc3ccc(Br)cc3)o2)nnn1-c1ccc(F)cc1
    -13%, 12%
> COc1ccccc1NC(=O)Cn1c(=O)c(CNc2ccc(C)cc2)cc2cc3c(cc21)OCCO3
    u, -24%
> Cc1ccc(NC(=O)Cn2cc3c(n2)CCCC3)cc1Cl
    u, -5%
> COc1ccc(-c2nc3ccccc3n3c(-c4ccc(OC)cc4)c4c(=O)n(C)c(=O)n(C)c4c23)cc1
    -35%, 11%
> N#Cc1ccccc1CSc1nnc(-c2ccccc2)o1
    -20%, 33%[activator]
> Cc1ccc2[nH]c(=O)c3cc(C(=O)N(C)c4ccc(Br)cc4)sc3c2c1
    u, -23%
> COC(=O)c1sc(-c2ccccc2)cc1NC(=O)Nc1ccc(Cl)cc1
    -37%, -2%
> O=C(Nc1ccccc1C(=O)N1CCCCC1)c1nsc2ccccc12
    -1%, -4%
> CCC1CCCCN1CCCNC(=O)CN1C(=O)c2cccnc2Oc2ccc(Cl)cc21 (centres undefined)
    -20%, 6%
> COc1ccc(C)cc1NC1(c2ccccc2)C(=O)c2ccccc2C1=O
    9%, -9%
> CCCN1CCN(c2ncnc3sc(C(=O)Nc4ccc(C(C)C)cc4)c(C)c23)CC1
    u, -26%
> Cc1ccc(CSc2nc(-c3cccs3)ccc2C#N)cc1
    -15%, -18%
> COc1cccc(NC(=O)c2oc3ccccc3c2NC(=O)C23CC4CC(CC(C4)C2)C3)c1
    2%, -15%
> CCOC(=O)c1c(S(=O)(=O)NCC(=O)Nc2cc(C)ccc2OC)c(C)n(C)c1C
    -1%, -9%
> CCCN(CCC)C(=O)C(CCC(=O)OCCCN1CCN(CCOC(=O)Cc2c(C)n(C(=O)c3ccc(Cl)cc3)c3ccc(OC)cc23)CC1)NC(=O)c1ccccc1 (centres undefined)
    x, -17%
> Cc1ccc(-c2csc(-c3nc(-c4ccc(Br)s4)cs3)n2)cc1
    3%, -4%
> Cc1ccc(NC(=O)C(Cc2ccccc2)NS(=O)(=O)c2cccs2)cc1Cl (centres undefined)
    -28%, 0%
> COc1ccccc1CNC(=O)CCCCn1c(=O)c2ccccc2n(CC(=O)Nc2cccc(Cl)c2)c1=O
    u, -22%
> COc1ccccc1N1CCN(C(=O)C2CCCN(S(=O)(=O)c3ccc4c(c3)oc(=O)n4C)C2)CC1 (centres undefined)
    u, u
> COc1ccc(-c2cc(C(C)=O)c(C)n2CCC(=O)Nc2cc(C)ccc2OC)cc1
    -2%, -24%
> CC1CCc2c(sc(NC(=O)COc3ccccc3)c2C(=O)Nc2ccccc2Cl)C1 (centres undefined)
    6%, -9%[11.5 µM]
> Cc1ccc(NC(CNS(=O)(=O)c2ccc(Cl)cc2)c2ccccc2)cc1 (centres undefined)
    u, u
> CCCCOC(=O)c1ccc(Nc2ncnc3c2cnn3-c2cccc(C)c2)cc1
    10%, -15%
> CCn1c(=O)c2sccc2n2c(CCCC(=O)N3CCN(c4ccccc4OC)CC3)nnc12
    -26%, -17%
> COC(=O)C(CCSC)NC(=O)c1cc2c(n(-c3ccccc3)c1=O)CC(C)(C)CC2=O (centres undefined)
    -11%, 1%
> CC(C)c1ccc(NC(=O)CN2C(=O)COc3ccc(S(=O)(=O)Nc4ccccc4)cc32)cc1
    u, -26%
> COc1ccc(CCNc2ncnc3c2c(-c2ccccc2)cn3-c2ccc(F)cc2)cc1OC
    u, u
> COc1ccc(N2CCN(Cc3nc4c(c(=O)n(C)c(=O)n4C)n3C(C)C)CC2)cc1
    -32%, u
> Cc1ccc(C)c(Cn2c3ccccc3c3cnn(CC(=O)NCC(C)c4ccccc4)c(=O)c32)c1 (centres undefined)
    2%, 8%
> O=C(COc1ccc(F)cc1)Nc1ccc2nc(SCC(=O)N3CCOCC3)sc2c1
    u, u
> CO/N=C1\CN(c2nc3c(cc2F)c(=O)c(C(=O)O)cn3C2CC2)CC1CN (centres undefined)
    x, 1%
> NC(=O)C1CCCc2c1[nH]c1ccc(Cl)cc21 (centres undefined)
    x, -15%
> Cc1ccc2ncc(C(=O)NCCc3ccc(S(N)(=O)=O)cc3)c(=O)n2c1
    2%, -1%
> O=C(CSc1ncc2c(n1)-c1ccccc1N(Cc1ccc(F)cc1)S2(=O)=O)c1ccc(Cl)cc1
    -13%, -16%
> COc1cccc(C(=O)NCCSc2c(-c3ccc(F)cc3)[nH]c3ccccc23)c1OC
    u, u
> CCCN1C(=O)C2(c3ccccc31)c1c(oc3cc(C)c(C)cc3c1=O)C(=O)N2CCCOC (centres undefined)
    22%, -14%
> COC(=O)c1c(NC(=O)Cc2coc3ccc(C(C)C)cc23)sc2c1CCC2
    -4%, -24%
> CCCC1=Nc2cc(C(=O)NCCc3ccc(OC)cc3OC)ccc2Sc2ccccc21
    u, u
> Cc1ccc(NC(=O)Nc2cn(CC(C)C)c(=O)c3ccccc23)cc1N(C)C
    -6%, -25%
> Cc1cc(C)cc(OC(=O)c2snnc2C)c1
    -11%, -22%
> Cc1cc(Nc2cccc(F)c2)n2nc(-c3ccco3)nc2n1
    5%, -9%
> Cc1ccc(NC(=O)Cn2c(=O)n(Cc3ccco3)c(=O)c3sc4ccccc4c32)cc1C
    u, -5%
> CCc1ccccc1NC(=O)Cn1ccn(Cc2ccccc2)c(=O)c1=O
    -1%, -11%
> COc1ccccc1NC(=O)CSc1nnc(N)s1
    8%, -4%
> CCc1ccc2occ(CC(=O)Nc3c(C(=O)c4ccc(F)cc4)oc4ccccc34)c2c1
    -17%, -18%
> CC1CCCN(C(=O)Cn2ncc3c([nH]c4ccccc43)c2=O)C1 (centres undefined)
    -19%, -3%
> COc1ccc(CCC(=O)NCc2nc3cccnc3n2Cc2cccc(OC)c2)cc1
    -1%, -3%
> CC(C)CN1CCc2nc(N3CCN(c4ncccn4)CC3)ncc2C1
    -8%, 7%
> Cc1ccc(NC(=O)N2CCN(C)c3ncccc32)cc1C
    1%, 5%
> COc1ccccc1C(=O)Nc1ccc(C(=O)OCc2cc(=O)n3nc(C4CC4)sc3n2)cc1
    -7%, -17%
> Cc1ccc(CCNC(=O)Cn2ncc3c([nH]c4ccccc43)c2=O)cc1
    2%, 1%
> CCN(C(=O)C(NS(=O)(=O)c1ccc(Br)s1)c1ccccc1)c1ccc(C)c(C)c1 (centres undefined)
    u, u
> Cc1c(C(=O)Oc2ccc(Br)cc2)sc2ncn(Cc3ccccc3F)c(=O)c12
    -10%, -8%[11.5 µM]
> COc1ccc(-c2nc(C(=O)Nc3cccc(C(C)=O)c3)nn2-c2ccccc2Cl)cc1
    u, -5%

Next section
The line under a structure holds: PMP22 txn, HTT prom inh
> COc1ccc(NC(=O)CCCSc2nc(-c3ccco3)cc(C(F)(F)F)n2)c(OC)c1
    -25%, -26%
> Cc1ccc(C(=O)Nc2cc(-c3nc4ncccc4o3)ccc2C)c(C)c1
    -14%, 23%
> Cc1ccc2[nH]c(CSc3nnc(COc4ccccc4C)n3C)cc(=O)c2c1
    13µM*, -28%
> CCN1CCN(C(=O)c2cnn(-c3cccc(C)c3)c2C2CCN(C(=O)OC(C)(C)C)CC2)CC1
    -10%, 6%
> Cc1ccc(NC(=O)Cn2c(=O)oc3cc(S(=O)(=O)N4CCCCC4)ccc32)c(Cl)c1
    u, u
> Cc1ccccc1NC(=O)CS(=O)(=O)c1cccc2nsnc12
    4%, -19%
> COc1cccc(CNC(=O)Cc2c(C)c3c(cc(C)c4c(C)coc43)oc2=O)c1
    -13%, 1%
> Cc1cc(Nc2ccccc2F)n2nc(-c3ccccc3)nc2n1
    -27%, -16%
> COc1ccc(OC)c(CNC(=O)Cn2ncc3c([nH]c4ccc(C)cc43)c2=O)c1
    7%, 10%
> COc1ccccc1NC(=O)c1c(NC(=O)c2cccs2)sc2c1CCC(C(C)(C)C)C2 (centres undefined)
    -6%, -11%[11.5 µM]
> COc1cc(-c2noc(-c3ccc(NCc4cccnc4)c([N+](=O)[O-])c3)n2)cc(OC)c1OC
    7.1µM*, 8%
> CCOCCc1nn2c(=O)cc(COC(=O)CNC(=O)c3cccc(C)c3)nc2s1
    -5%, -4%
> COc1ccccc1NC(=O)Cn1c(=O)n(-c2ccccc2Cl)c(=O)c2sc3ccccc3c21
    -4%, -16%
> COc1ccc(CCNC(=O)Cn2nc(-c3ccc(Cl)cc3)ccc2=O)cc1OC
    -50%, -19%
> CCCN(C(=O)c1cc2ccc3cccnc3c2[nH]1)c1ccc(F)cc1
    -8%, 34%[activator]
> CN(C)CCOC(=O)COc1ccc(Cl)cc1
    x, 8%
> Cc1ccc(CNC(=O)CSc2ncc3c(n2)-c2cc(Cl)ccc2N(C)S3(=O)=O)cc1
    -40%, -11%
> O=S(=O)(c1ccc2nc(Nc3cccc(F)c3)ccc2c1)N1CCCC1
    -43%, -4%
> COc1ccc2c(c1)CCc1c(C(=O)Nc3c(C)nn(Cc4ccc(C)cc4)c3C)noc1-2
    u, 22µM*
> CCN(CC)CCNC(=O)c1ccc2c(c1)NC(=O)C(CS(=O)(=O)Cc1ccc(F)cc1Cl)N2 (centres undefined)
    -47%, -1%
> COc1ccccc1CNC(=O)c1ccc2c(c1)N(Cc1cccc(C)c1)C(=O)c1ccccc1S2(=O)=O
    -9%, -12%

Screens deposited in PubChem by National Center for Advancing Translational Sciences (NCATS).
